Assay outcomes from PubChem.
HNF4A DNA FP: change in binding of human HNF4A to DNA, primary screen, biochemical, fluorescence polarization, FITC-DNA; Hepatocyte nuclear factor 4-alpha (Homo sapiens), P41235; 1 h; activity change, % at 10 µM; 360,000 tested, 0.3% active; in the data active = activity change above about 30%, passing the limit was not always enough;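 note: controls were the assay level and a saturating level of protein; the project sought stronger binding though the title names inhibitors; some compounds called inactive have numbers as strong as hits; positive values seem to mean higher polarization but the record does not say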
Target sequence (P41235 whole entry, looked up): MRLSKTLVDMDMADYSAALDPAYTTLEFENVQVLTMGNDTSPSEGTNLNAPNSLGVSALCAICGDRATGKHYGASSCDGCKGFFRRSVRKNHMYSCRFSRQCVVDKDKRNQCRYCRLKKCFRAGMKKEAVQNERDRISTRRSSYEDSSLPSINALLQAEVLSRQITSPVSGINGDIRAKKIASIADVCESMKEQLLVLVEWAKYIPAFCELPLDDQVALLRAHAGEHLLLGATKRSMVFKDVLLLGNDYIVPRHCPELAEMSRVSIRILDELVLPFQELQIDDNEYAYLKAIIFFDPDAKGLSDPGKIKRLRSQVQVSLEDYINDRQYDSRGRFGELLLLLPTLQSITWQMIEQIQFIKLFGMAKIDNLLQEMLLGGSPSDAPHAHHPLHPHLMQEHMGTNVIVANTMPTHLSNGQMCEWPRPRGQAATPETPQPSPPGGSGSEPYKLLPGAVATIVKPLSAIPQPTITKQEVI
Beta2AR agonist: beta2AR agonists driving receptor internalization, primary screen, cell-based, FAP fluorogen, flow cytometry; AID 504454, 2011; Am2.2-beta2AR cells; reference of the scale not given here; Beta-2 adrenergic receptor (Homo sapiens), P07550; response, % (concentration not given with the values); 340,000 tested, 0.43% active;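 active = response above a set limit, near 3 SD of response in nonfluorescent compounds, cut at about 42% in these data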;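 note: stock transfer was 100 nL into about 11 µL; a reference agonist was the positive control; negative values mostly stem from fluorescent compounds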
Target sequence (P07550 whole entry, looked up): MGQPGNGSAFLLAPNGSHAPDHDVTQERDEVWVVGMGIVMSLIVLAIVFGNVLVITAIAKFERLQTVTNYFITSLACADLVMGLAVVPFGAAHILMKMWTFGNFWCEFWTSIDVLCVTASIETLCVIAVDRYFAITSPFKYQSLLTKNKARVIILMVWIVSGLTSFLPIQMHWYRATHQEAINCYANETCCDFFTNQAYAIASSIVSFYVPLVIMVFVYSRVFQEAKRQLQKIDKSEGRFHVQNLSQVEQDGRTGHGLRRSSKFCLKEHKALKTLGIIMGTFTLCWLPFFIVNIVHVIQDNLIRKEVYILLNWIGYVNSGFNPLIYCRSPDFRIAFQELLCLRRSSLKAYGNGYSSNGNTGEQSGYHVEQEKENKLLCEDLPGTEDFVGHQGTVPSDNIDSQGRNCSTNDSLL
ALR inh: inhibitors of human ALR sulfhydryl oxidase, primary screen, biochemical, H2O2 detection, HRP-luminol luminescence, single point. inhibition, % (no concentration beside the values). AID 485317, 2010. purified ALR, DTT oxidation. 290,000 tested, 3.8% active;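 active = mean and each replicate at 75% or more; inconclusive = only one of the two met; inactive = neither met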;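 note: stock transfer was 7.5 nL into about 7.5 µL; 0% = neutral wells and 100% = wells with inactivated enzyme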
Target sequence (P55789 whole entry, looked up): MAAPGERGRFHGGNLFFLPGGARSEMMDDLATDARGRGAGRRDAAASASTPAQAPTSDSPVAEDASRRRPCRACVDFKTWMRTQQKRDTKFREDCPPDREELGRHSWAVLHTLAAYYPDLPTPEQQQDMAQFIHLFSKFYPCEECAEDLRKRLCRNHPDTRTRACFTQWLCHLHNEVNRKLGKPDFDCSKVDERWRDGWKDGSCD
RanGTP-Impb inh: inhibitors of RanGTP-importin-beta interaction, primary screen, biochemical, FRET, CFP-Ran, YFP-importin-beta, homogeneous. inhibition, % (no concentration beside the values). Ran GTPase (GTP-bound) - importin-beta complex. cell-free CFP-Ran/YFP-importin-beta FRET ratio. AID 2216, 2009. 300,000 tested, 1.1% active;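 active = most replicates above 15%; inconclusive = exactly half above 15%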;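 note: 0% = DMSO wells and 100% = Ran loaded with GDP instead of GTP; wells of about 40 µL received 100 nL stock; the first replicate is given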
LANA-H2A inh: blockers of LANA interaction with H2A/H2B – biochemical, FP readout, HTS, primary screen; 320,000 tested, 0.6% active; inhibition, % (concentration not given with the values); Protein LANA1 (Human herpesvirus 8 type P (isolate GK18)), Q9QR71; cell-free LANA-H2A/H2B peptide, fluorescence polarization; in the data active = inhibition mostly above about 10%, no sharp cut-off; inactive = mostly below about 6.7%;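 note: stock transfer was 7.5 nL into about 10 µL; 0% = median of vehicle wells and 100% = median of positive control wells; one replicate is shown; the record names a cut of 25% in any replicate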
Vif TR-FRET: inhibitors of Vif binding to APOBEC3G peptide, primary screen, biochemical, TR-FRET, GST-Vif 1-94, biotin-A3G peptide, dose response retest (AID 1117319); Virion infectivity factor (Human immunodeficiency virus type 1 group M subtype B (isolate …; TR-FRET GST-Vif / biotin-A3G peptide binding; higher % means a stronger effect; test concentration not given here; strong numbers were not always called active; inhibition, %, or IC50 in µM where a hit was titrated; 260,000 tested, 0.57% active;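 active = above the screen mean plus three standard deviations and confirmed in dose response; inconclusive = results disagree or hit not tested in dose response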;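 note: Vif residues 1-94 fused to GST binding biotinylated APOBEC3G peptide 110-148; 0% = full assay without inhibitor and 100% = GST in place of GST-Vif; retest series ran down from 100 µM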
Calb FLC: C. albicans growth inhibition with fluconazole, primary screen, CaCi-2 strain, Alamar Blue fluorescence; 300,000 tested, 0.57% active; C. albicans CaCi-2 (fluconazole-resistant clinical isolate) + fluconazole, 48 h; AID 1979, 2009; growth inhibition, % (test concentration not listed);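 active = most replicates above 75%; inconclusive = exactly half above 75%; inactive = most below 75%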;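 note: all wells also contain fluconazole at 8 µg/ml as a sub-toxic cotreatment; 0% = median of DMSO wells and 100% = median of geldanamycin control wells; wells of about 8 µL received 7.5 nL stock; the first replicate is given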
Starred values were filed as active, the others as inactive; ? = inconclusive; / = no result given; & = joins results of further samples. No enrichment for hits; about 6.3% have a hit in one of these screens.

SMILES	HNF4A DNA FP	Beta2AR agonist	ALR inh	RanGTP-Impb inh	LANA-H2A inh	Vif TR-FRET	Calb FLC
Cc1ccc(CNc2nc(N)c([N+](=O)[O-])c(Nc3cccc(F)c3)n2)cc1	-2.0	-6	-13	?	1.9	4%	7
CCC1CN(S(=O)(=O)c2ccc3c(c2)NC(=O)CC(=O)N3)c2cc(Cl)ccc2O1 (centres undefined)	0.4	8	29	0.5	0.9	/	14
OCCNCc1ccc(OC2CCCC2)cc1	-2.1	-9	-30	-4.4	0.2	1%	-12
CC(C)(C)NC(=O)CSc1ncnc2c1cnn2-c1ccccc1	1.4	9	2	-1.8	-0.4	/	-3
CC1NC(C)(C)Cc2c1ccc1ccccc21 (centres undefined)	2.2	0	0	-0.9	2.8	-12%	-7
O=C1CSc2ccccc2N1Cc1ccccc1F	1.6	3	-10	-3.6	1.7	-4%	2
Cc1[nH]c2ccc(Br)cc2c(=S)c1C/C=C/Cl	7.6	10	-13	0.6	3.9	21%	-6
Cc1ccc(-c2nc(C3CCN(S(=O)(=O)c4ccc(C(F)(F)F)cc4)CC3)no2)cc1	-0.9	-3	-6	?	-0.8	2%	3
Cc1ccc(C(=O)NCC(=O)NCC(=O)OCC(=O)c2ccc([N+](=O)[O-])cc2)cc1	2.5	-6	74	1.0	-5.5	0%	1
C/C(=N\NC(=O)COc1ccccc1)c1cccs1	-3.3	-5	-4	6.2	-5.2	2%	-15
CCOc1ncccc1C(=O)Nc1cccc(Cl)c1Cl	1.4	8	-9	0.7	2.2	7%	15
COCCCNC(=O)CNC(=S)N(Cc1cc(OC)c(OC)c(OC)c1)C1CCCC1	0.4	7	2	1.8	4.2	-5%	-7
O=C1NC(c2cccc(Cl)c2)Nc2ccccc21 (centres undefined)	3.5	4	1	1.3	0.0	-13%	?
COc1ccc(N=CC2=C(O)c3ccccc3C2=O)c(OC)c1	-2.8	10	/	6.7	-1.2	5%	24
CCN1C(=NCc2ccco2)N[C@@H](c2cccc(F)c2)C(C(=O)OC)=C1C	2.0	6	-6	2.7	-1.5	/	-1
O=C(Cc1ccccc1F)Nc1ccc(Cl)nc1	0.9	-6	-8	?	-1.4	-7%	?
O=C(COC(=O)c1cncc(Br)c1)NC1CC1	0.8	2	-4	0.6	0.6	4%	-1
CCOC(=O)Cc1csc(NC(=O)CSc2nc3sc(C(=O)O)c(C)c3c(=O)[nH]2)n1	-1.8	0	-5	-1.8	1.4	?	66
COC(=O)c1ccccc1NC(=S)N1CCOCC1	-0.9	5	-4	-0.2	-1.7	0%	5
Cn1c(=O)c(=O)n(C)c2cc(S(=O)(=O)N3CCN(c4cccc(C(F)(F)F)c4)CC3)ccc21	-1.8	-19	-11	0.1	2.0	1%	-4
COC(=O)c1ccc(C(=O)Nc2nnc(-c3cccnc3)o2)cc1	/	/	31	-1.0	-2.3	2%	1
CCN(CC)S(=O)(=O)c1ccc(NC(=O)CO/N=C(\N)c2ccccc2)cc1	-1.8	11	/	-2.0	-1.5	-3%	4
CCc1ccc(CN(C)CC(=O)Nc2ccc3c(c2)CCC3)cc1	3.7	-2	-1	1.1	-3.5	2%	-23
O=C(Cc1nnc(NC(=O)Nc2ccc(F)cc2)s1)NCc1ccccc1	0.5	0	-6	0.0	1.9	4%	-2
CN1C=CC2=C(C#N)C(N)C(C#N)(C#N)[C@H](c3ccccc3)[C@H]2C1 (some centres undefined)	-10	14	62	64*	11	21%	5
O=C(O)/C=C/C(=O)NNC(=O)c1ccc(Cl)cc1Cl	-1.2	8	5	0.1	1.8	-2%	-20
COc1ccc(CC(=O)Nc2ccc(C(=O)NC(C)(C)C)cc2)cc1OC	1.9	1	/	-1.7	-5.1	-1%	-7
CCOC(=O)c1c(C)[nH]c(C)c1C(=O)COC(=O)/C=C/c1ccco1	1.1	1	-2	/	4.6	1%	/
CCCn1c(CNc2ccccc2O)nc2ccccc21	-0.5	-19	-5	1.0	-0.4	53µM*	-9
S=C(NC1CCCC1)NN1CCOCC1	1.9	-4	/	-4.1	-0.3	11%	-12
Cc1nn(C/C(C#N)=N\O)c(C)[n+]1N	-2.2	9	-14	-0.8	0.8	-14%	-12
CC1(C)CC(=O)C/C(=N\NC(=O)C2C3CCCCC32)C1 (centres undefined)	1.9	-2	26	8.8	-1.0	8%	9
CCN(CC)S(=O)(=O)c1cc(NC(=O)C2CSC3(C)CCC(=O)N23)ccc1C (centres undefined)	10	1	0	/	2.5	24%	/
COc1ccccc1C(C)NC(=O)CN(C)CC(=O)Nc1c(C)cccc1C (centres undefined)	-0.4	-3	0	/	-0.7	-3%	/
Cc1cc2cc(CNS(=O)(=O)N(C)C)ccc2[nH]1	1.9	-2	-37	-7.5	-2.7	9%	-3
Cc1ccc(C(=O)Nc2nc(=O)n(C(=O)C3CC3)s2)cc1	1.0	-6	48	-0.9	4.3	-11%	-9
Cc1cccc(OCc2nnc(SCC(=O)NC3CCCC3)n2C)c1	2.0	-2	-4	0.6	-4.9	/	15
COc1cccc(CNC(=O)c2cccc(NC(=O)C3=C(C)OCCS3)c2)c1	-1.2	0	-6	4.9	1.0	/	-12
COc1ccc2c(C)cc(SCC(=O)Nc3ncc(Cl)cc3Cl)nc2c1	3.3	2	-45	1.6	4.4	/	3
CCCNC(=O)NC(=O)CSc1cccc(C(F)(F)F)c1	-2.2	-11	-13	-3.9	1.9	7%	-15
Cc1ccc(NC(=O)C2CCCO2)cc1[N+](=O)[O-] (centres undefined)	2.2	3	1	3.7	-2.4	/	-19
O=c1[nH]c(NCCO)nc2c1C1(CCCCC1)Cc1ccccc1-2	-0.8	0	-6	/	1.7	-4%	/
CCN1CCN(c2ccc(S(=O)(=O)N3CCOCC3)cc2NC(=O)/C=C/c2ccc([N+](=O)[O-])cc2)CC1	-0.4	18	10	3.2	-2.5	4%	0
O=C(NNC(=O)c1ccccc1Br)c1cccc(Cl)c1	0.1	-8	-7	?	0.2	1%	-1
CCn1c2ccccc2c2nc3cc(C(=O)O)ccc3nc21	-0.8	-1	/	/	/	10%	/
COc1cc(C2CC(=O)N(CC(=O)NCc3ccco3)c3ccccc3S2)cc(OC)c1OC (centres undefined)	3.0	4	-14	9.1	-1.6	29%&-8%	-18
COc1ccc(/C=C/C(=O)OCC(=O)NC2CC2)c(OC)c1	-0.1	-13	-4	/	0.7	/	/
O=C(Nc1nnc(Cc2ccccc2F)s1)Nc1ccccc1F	-1.1	-3	-3	?	6.5	/	-9
N#CCCn1cc(C=O)c(-c2cccs2)n1	-0.9	7	-5	1.0	-1.0	9%	-12
Nc1cc(C(F)(F)F)ccc1OCC1CCCO1 (centres undefined)	-1.9	-2	-14	-1.3	-1.2	10%	4
COc1ccc(NC(=O)/C(=C/c2ccc3c(c2)OCO3)NC(C)=O)cc1	-2.9	0	-4	-3.7	-2.4	-5%	-1
Cc1cccc(NC(=O)CNC(=O)Cc2ccc(S(=O)(=O)N3CCOCC3)s2)c1C	5.5	3	/	/	-4.8	1%	/
CCOc1ccc(NC(=O)C[n+]2ccccc2)cc1	1.4	-3	-7	4.3	6.8	/	-4
O=C(CCc1c[nH]c2ccccc12)NCCc1ccc(O)cc1	-1.0	5	85*	1.9	0.7	4%	2
C=C(C)Cn1c(Sc2nc3ccccc3[nH]2)nc2c1c(=O)[nH]c(=O)n2C	-1.9	-20	-5	2.8	-4.9	-6%	1
Cc1ccc(N2C(=O)c3ccc(C(=O)N4CCN(c5cccc(C)c5C)CC4)cc3C2=O)cc1	-1.2	3	-8	-0.5	5.4	14%	-12
CCN(C(=O)CSc1nc2cc(Cl)ccc2c(=O)n1CC(C)C)C1CCS(=O)(=O)C1 (centres undefined)	2.5	7	5	2.3	-1.8	-39%	10
CCOC(=O)C1C(=O)NC(N2CCCCC2)=NC1C(C)C (centres undefined)	-4.8	-6	-1	0.9	0.0	-2%	8
CN(C1=C(NC(=O)c2ccccc2)C(=O)c2ccccc2C1=O)C1CCS(=O)(=O)C1 (centres undefined)	-3.1	6	/	-6.6	-7.6	24%	?
Cc1ccc(Nc2nc(-c3sc(NC(=O)c4cccc(Cl)c4)nc3C)cs2)cc1	/	/	1	-2.6	-0.8	17%	-2
Next compounds.
SMILES	HNF4A DNA FP	Beta2AR agonist	ALR inh	RanGTP-Impb inh	LANA-H2A inh	Vif TR-FRET	Calb FLC
Cn1c(=O)c2[nH]c(CN3CCN(Cc4ccccc4)CC3)nc2n(C)c1=O	-0.5	3	-2	3.5	0.6	8%	-10
COCCCN(C(=S)NC(=O)C(C)(C)C)c1c(N)n(Cc2ccccc2)c(=O)[nH]c1=O	2.4	-5	0	1.7	-2.0	-5%	0
Cc1cc(C(=O)COC(=O)C2=COCCO2)c(C)n1-c1ccc2c(c1)OCO2	-0.5	1	-39	-4.9	-2.9	-2%	-24
COc1cc(C(=O)Nc2nc(-c3ccc(Cl)cc3)c(C)s2)ccc1OCC(=O)Nc1ccc(F)cc1	2.6	-1	6	1.1	-1.5	-37%	-5
Oc1ccc(-c2nccc(-c3ccccn3)n2)cc1	0.2	-4	30	-1.0	-2.4	0%	-8
COc1cc(C(=O)OC(C)CN2CCN(C)CC2)cc(OC)c1OC (centres undefined)	4.4	-2	-2	7.7	2.7	-4%	13
Cc1cccc(NC(=O)Cn2c(O)c(N=NC(=O)c3ccccc3O)c3ccccc32)c1	-9.5	-3	-4	2.6	3.6	/	0
c1ccc(OCCn2cnc3ccccc32)cc1	0.5	-2	0	-0.6	6.3	-2%	-20
FC(F)(F)c1ccc2nnc(-c3c(Cl)cccc3Cl)n2c1	0.8	6	-4	-1.1	-0.6	-1%	4
Cc1ccc(S(=O)(=O)N2CCN(C3CC(=O)N(Cc4ccccc4)C3=O)CC2)cc1C (centres undefined)	-1.1	3	4	-0.6	7.5	2%	11
CCCCOC(=O)CCn1c(=S)oc2ccccc21	0.6	-5	-4	2.7	0.1	-3%	-2
COc1ccc2[nH]c(C(=O)Nc3ccc(C)c(F)c3)cc2c1	4.7	0	-12	-2.2	1.0	-3%	-3
C/C(CCc1ccccc1)=N\NC(=O)c1ccccc1	0.9	9	-27	2.5	0.6	-8%	-8
COC(=O)c1ccccc1OCCCCN1CC(C)OC(C)C1 (centres undefined)	-1.4	-4	0	3.3	-0.9	18%	-9
COC(=O)c1nnn(-c2ccsc2C(=O)OC)c1C(=O)OC	4.3	-2	2	-3.1	-2.0	-8%	12
COc1ccc(OCC(=O)Nc2ccc3c(c2)nc(CCN2CCCCC2)n3C)cc1	6.7	-3	-4	-3.5	-1.9	/	/
CCN1CC=C2C(C1)C(c1ccc(Cl)s1)C(C#N)=C(N)C2(C#N)C#N (centres undefined)	-59	-23	-7	50*	6.1	29%	10
Cc1cccc(NC(=O)c2ccc([N+](=O)[O-])s2)c1C	-4.5	1	-66	0.9	1.3	3%	31
O=C(Nc1ccccc1Cc1ccccc1)c1ccc2c(c1)SC1=NS(=O)(=O)CCN12	-1.8	17	-3	1.3	-0.6	-5%	6
Cc1ccc(S(=O)(=O)CCC(=O)NCc2ccc(Cl)cc2)cc1	-0.5	-5	-5	?	1.5	/	-6
